MT1-MMP reporter – MT1-MMP gene expression reporter suppression – cell-based, luciferase reporter, luminescence (AID 618); MT1-MMP promoter luciferase reporter cells, luminescence; calls from a first round at 10 µM; hits with a dose series show EC50 in µM; 87,000 tested, 0.62% active;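 active = over half of the reporter light lost at 10 µM or EC50 under 50 µM; inactive = the rest and hits that failed the dose series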;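 also: actives suppress MT1-MMP promoter-driven transcription so potencies describe inhibitors; HT1080 fibrosarcoma cells; overnight exposure; toxic or luciferase-blocking compounds were not removed from the actives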
WNV protease inh – inhibitors of West Nile virus NS2B-NS3 protease | 65,000 tested, 0.18% active | z-score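 (tested at a level between 10 and 100 µM)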 | P06935 | WNV NS2B-NS3 protease, fluorogenic substrate Ex360/Em465; stronger effect = lower value;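 active = z-score at -3 or under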;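 also: score is relative to mean and spread of the compound wells of a plate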
Target sequence (P06935 1371-1501 limits assumed): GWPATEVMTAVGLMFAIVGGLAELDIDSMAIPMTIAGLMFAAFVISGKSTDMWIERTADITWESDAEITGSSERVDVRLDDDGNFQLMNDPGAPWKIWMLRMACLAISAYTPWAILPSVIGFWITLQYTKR
Target sequence (P06935 1502-1679 limits assumed): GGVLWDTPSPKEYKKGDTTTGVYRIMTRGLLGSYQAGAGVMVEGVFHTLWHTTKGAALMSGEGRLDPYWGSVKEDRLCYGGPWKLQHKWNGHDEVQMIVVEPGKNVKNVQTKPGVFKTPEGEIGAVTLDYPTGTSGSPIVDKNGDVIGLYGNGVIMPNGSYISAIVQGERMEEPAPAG
Hsc70 – Hsc70 inhibitors, probe displacement, primary screen, biochemical, fluorescence polarization (AID 568); Hsc70 fluorescence polarization, probe displacement; higher % means a stronger effect; strong numbers were not always called active; one-dose displacement, % at 20 µM; IC50 in µM for titrated hits; 83,000 tested, under 10 active;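 active = displacement above 50% without optical interference and an IC50 on retest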;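 also: ATPase domain with a fluorescein-tagged ATP probe; 0% = vehicle and 100% = excess ADP; read after one hour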
* hit, by the source's call; i = inactive; . = no result given. Not all compounds are listed, so the mix of outcomes need not match the whole.

SMILES	MT1-MMP reporter	WNV protease inh	Hsc70
CC(C)Sc1nnc(Cn2c(=O)sc3ccccc32)n1-c1ccccc1	i	0.84	1.9%
CC(=O)Nc1ccc(S(=O)(=O)NC2=NCN(CCOC(=O)c3ccccc3)CN2)cc1	i	-0.57	-2.9%
O=C(CN(C(=O)CCC(=O)Nc1nccs1)c1ccc(F)c(Cl)c1)NCc1ccco1	i	-2.8	3.8%
Cc1nc2ccccc2nc1N1CCOCC1	i	.	0.3%
O=C(NCCc1ccc2c(c1)OCCO2)c1cc2ccccc2o1	i	-0.51	1.0%
COc1ccc(-n2c(/C=C(\C)O)nc(=O)c3c(C)cc(C)nc32)cc1	i	0.1	-7.8%
CCC(Oc1ccccc1)C(=O)Nc1ccccc1OC (stereo unspecified)	i	-0.12	-0.3%
CCCn1nnc(NCc2ccc(OCc3cccs3)c(OC)c2)n1	i	-0.13	-3.1%
Cc1cccc(OCc2nc(-c3nonc3N)no2)c1C	i	-0.64	9.9%
CCC(CC)C(=O)Nc1cc(OC)c(OC)cc1C(=O)O	i	1.1	10%
COc1cc(NS(C)(=O)=O)c(OC)cc1NC(=O)c1cccc(F)c1	i	-0.7	3.1%
COc1cccc(CNc2nc3ccccc3n2CCN2CCCCC2)c1OC	i	-2.1	-1.0%
O=C(Nc1ccc2snnc2c1)N1CCN(c2ccccc2)CC1	i	0.77	-2.8%
COc1ccc(NC(=O)Nc2ccccc2C(N)=O)cc1OC	i	0.4	9.3%
Cc1cc(C(=O)OCC(=O)NCc2ccco2)c(C)n1-c1ccccc1	i	-0.95	-4.8%
COc1ccc(OC)c(C(O)c2coc3ccc(O)c(CN4CCOCC4)c23)c1 (stereo unspecified)	i	1.2	2.7%
O=C(NCCN1C(=O)C2C3C=CC(C3)C2C1=O)N1CCCCC1 (stereo unspecified)	i	0.32	1.6%
CCOc1ccc(S(=O)(=O)Nc2cccc(OC)c2)cc1	i	.	0.1%
CC1CCc2nc(NCCO)nc(C(F)(F)F)c2C1 (stereo unspecified)	i	0.4	-5.4%
Cn1c(SCC(=O)N2CCc3ccccc32)nnc1C1CC1	i	-0.39	-0.4%
CCC(c1nnnn1CCOC)N1CCN(Cc2ccccc2OC)CC1 (stereo unspecified)	i	-0.59	-3.3%
CCOC(=O)N1CCN(C(=O)c2cccc(NC3=NC4CS(=O)(=O)CC4S3)c2)CC1 (stereo unspecified)	i	0.32	0.0%
Cc1ccc(C(=O)N2CCN(c3ccc(Cl)cc3)CC2)cc1	i	-0.38	-3.6%
COC(C(=O)Nc1ccc(F)c(F)c1)c1ccccc1 (stereo unspecified)	i	.	3.2%
Cc1cc(C)cc(NC(=O)C2CCN(S(=O)(=O)c3c(C)n[nH]c3C)CC2)c1	i	0.66	-1.0%
(continued)
SMILES	MT1-MMP reporter	WNV protease inh	Hsc70
CC(C)Cc1ccc(C(C)C(=O)Nc2nccs2)cc1 (stereo unspecified)	i	.	0.4%
COc1ccc(NC2=NCC(=O)N2Cc2cccs2)cc1	i	.	-1.2%
COc1ccc(-c2nc(CS(=O)CC(=O)NCc3ccc(Cl)cc3)c(C)o2)cc1 (stereo unspecified)	i	-1	1.0%
CCNc1nc(NC(C)(C)C)nc(SC(C(C)=O)C(C)=O)n1	i	1.3	3.0%
O=P(O)(O)COc1ccccc1P(=O)(c1ccccc1)c1ccccc1	i	-0.41	-0.8%
COC(=O)CN(c1cc(C(F)(F)F)ccc1Cl)S(C)(=O)=O	i	-0.24	1.6%
CCCn1c(CN2CCN(C)CC2)nc2ccccc21	i	.	-7.1%
O=c1cc(CNCCCO)c2ccccc2[nH]1	i	1.2	6.9%
O=C(OCc1nnc(-c2ccccc2)o1)c1cc(S(=O)(=O)N2CCOCC2)c(Cl)cc1Cl	i	0.74	-4.4%
Nn1c(=O)c2ccccc2n2c(SCc3ccccc3)nnc12	i	0.25	-6.3%
O=C(NCC1CCCO1)c1cccc(NC(=O)c2ccco2)c1 (stereo unspecified)	i	-0.01	-3.3%
CCOc1cccc(/C(O)=C2/C(=O)C(=O)N(CCOC)C2c2ccco2)c1 (stereo unspecified)	i	-0.36	-1.8%
CCCCNc1nc(-c2ccccc2)cc(C(F)(F)F)c1C(N)=O	i	.	-3.5%
COCn1c(COc2ccccc2)nc2ccccc21	i	-0.43	5.1%
Cc1cc(N2CCN(C(c3ccccc3)c3ccccc3)CC2)n2ncnc2n1	i	0.83	-1.9%
CCCCSc1cnn(-c2ccccc2)c(=O)c1SCCCC	i	.	-0.6%
Cc1ccc(C(=O)Nc2ncc(C)s2)o1	i	.	-0.1%
CC1=C(C(=O)OCC2CCCO2)C(c2ccccc2)NC(=O)N1 (stereo unspecified)	i	-0.26	-4.5%
[O-]/[N+](=C\c1ccc(F)cc1)c1ccccc1	i	.	-2.1%
CC1CCN(S(=O)(=O)c2ccc(Cl)cc2Br)CC1	i	-0.03	3.0%
Cc1ccc(CCNC(=O)C2CCN(S(=O)(=O)c3cccc4nonc34)CC2)cc1	i	1.6	-25%
CCOC(=O)c1c(NC(=O)CSc2nnc(CNc3ccc(OC)cc3)n2C)sc(C)c1C	i	0.29	-4.6%
COc1ccc(-c2cc(=O)[nH][nH]2)cc1OC	i	.	-0.4%
O=C(NCc1ccccc1)N1CCN(c2ccc(Cl)c(Cl)c2)CC1	i	0.83	2.6%
O=C(Nc1cc(C(=O)N2CCOCC2)cc(C(=O)N2CCOCC2)c1)c1cc(F)c(F)cc1Cl	i	1.7	4.5%
Continued:
SMILES	MT1-MMP reporter	WNV protease inh	Hsc70
O=C(Nc1ccccc1OC(F)F)c1ccc(F)cc1	i	0.34	3.2%
Cn1cccc1Cc1nnc(SCC(=O)Nc2ccccc2F)n1-c1ccc(F)cc1	i	0.89	-5.8%
COCCNC(=O)C1CC(c2cccc(OC)c2)=NO1 (stereo unspecified)	i	-0.67	10%
CC(C)OC(=O)CSc1nc2ccccc2s1	i	0.59	-8.1%
COc1cc(OC)c(C2=NOC(C(=O)NCc3ccc4c(c3)OCO4)C2)cc1Cl (stereo unspecified)	i	-0.02	7.1%
CCOc1cc(CN2CCN(c3cccc(C(F)(F)F)c3)CC2)ccc1O	i	1.8	-0.2%
COc1ccc2cc(C#N)c(N3CCN(Cc4nnnn4CCC(C)C)CC3)nc2c1	i	-0.15	-5.0%
Cc1occc1C(=O)NCc1ccccn1	i	0.26	-1.5%
COc1cc(NC(=O)COc2cccc(OC)c2)cc(OC)c1	i	0.09	2.7%
O=C(CNc1ccccc1)Nc1ccc(F)cc1	i	0.27	-6.0%
Cc1[nH]n(C(N)=S)c(=O)c1N=Nc1ccc(S(=O)(=O)N2CCCC2)cc1	i	.	0.7%
CCOC(=O)CNC(=O)c1cc(C)oc1C	i	-0.88	6.7%
Nn1c(SCC(=O)Nc2ccccc2F)nnc1-c1cccnc1	i	-0.68	1.3%
CCOC(=O)C1CCN(C(=O)CN(c2cccc(C(F)(F)F)c2)S(C)(=O)=O)CC1	i	0.85	0.9%
O=C(Nc1cccc(C(F)(F)F)c1)C12CC3CC(CC(C3)C1)C2	i	.	2.3%
O=C(COC(=O)C1CC1)Nc1ccc(Oc2ccccc2)cc1	i	0.12	8.2%
CC(C)C(=O)N(Cc1ccc2c(c1)OCO2)Cc1ccccn1	i	-0.12	-1.1%
CCCCC(CC)CNC(=O)c1cccs1 (stereo unspecified)	i	-1.2	4.1%
O=C1CC(N2CCN(c3ccccc3)CC2)C(=O)N1CCc1ccccc1 (stereo unspecified)	i	0.0017	40%
CCOC(=O)c1c(C)[nH]c(C(=O)Cn2nnc(-c3ccccc3)n2)c1C	i	-0.76	-15%
O=C(NCc1ccco1)C1CCCN1S(=O)(=O)c1ccc2ccccc2c1 (stereo unspecified)	i	.	7.0%
Cn1nnnc1SCC(=O)NCc1ccccc1	i	.	-1.3%
Cn1c(NC(=O)c2cccs2)c(-c2cccs2)c(=O)c2ccccc21	i	0.68	-0.7%
CCOC(=O)c1sc(C)c(C(=O)NCC(C)(C)CN(C)C)c1N	i	.	-0.3%
CCOC(=O)CP(=O)(c1ccccc1)c1ccccc1	i	.	-6.3%
Remaining list, next part:
SMILES	MT1-MMP reporter	WNV protease inh	Hsc70
O=C(O)CC(C(=O)OCC1CCCO1)N1CCOCC1 (stereo unspecified)	i	-0.5	3.7%
CCCCCCn1ccc(=N)cc1	i	-0.53	-6.9%
Cc1nc(NC(C)c2ccccc2)c2c3c(sc2n1)CCC3 (stereo unspecified)	i	.	3.4%
Cc1ccc(OCCCn2c(CO)nc3ccccc32)cc1	i	-0.49	2.8%
O=C(c1ccc(S(=O)(=O)N2CCC(c3nc4ccccc4s3)CC2)cc1)N1CCCCC1	i	.	1.6%
CC1CCN(C(=O)Cn2c(=O)n(Cc3ccc4c(c3)OCO4)c(=O)c3ccccc32)CC1	i	0.64	-1.5%
O=S(=O)(NCCc1ccc2c(c1)OCCO2)c1cccs1	i	-0.66	-19%
CC1CCN(CC(C)OC(=O)c2ccc3c(c2)OCCO3)CC1 (stereo unspecified)	i	0.41	2.5%
Clc1ccc(Cn2ncc3c(N4CCCC4)ncnc32)cc1	i	0.9	8.2%
O=C(NCCN1CCOCC1)c1cccc(S(=O)(=O)N2CCCCCC2)c1	i	-0.63	-3.3%
CC(C)(C)C(=O)CNS(=O)(=O)c1ccc(S(=O)(=O)NC2CCCC2)cc1	i	-0.58	2.7%
COc1ccc(-c2cn3c(C)c(C(=O)NC(C)(C)C)sc3n2)cc1	i	-0.03	0.4%
CCOCCCNC(=O)C1CCCN1C(=O)NC1CCCCC1 (stereo unspecified)	i	-0.72	0.8%
O=C(Cn1cc(C(=O)c2cccs2)c2ccccc21)NCc1cccs1	i	0.18	3.8%
Cc1nc2ccccc2n1CC(=O)OCC(=O)Nc1ccc2c(c1)OCCO2	i	-0.76	0.2%
O=C(Nc1ccccc1)N1CCN(c2ncccn2)CC1	i	.	0.4%
N#CCCn1cnc2c(=S)nc[nH]c21	i	-0.37	1.5%
Cc1nc2nc(Cc3ccccc3)nn2c(C)c1Cl	i	0.12	6.0%
COc1ccc(CC(=O)N2CCN=C2SC)cc1	i	-1.4	4.1%
O=C(C1CCCN(c2ncccn2)C1)N1CCc2ccccc21 (stereo unspecified)	i	0.84	-9.9%
COc1ccccc1NC(=O)C1=C(C)Nc2nnnn2C1c1ccccc1OC (stereo unspecified)	i	0.65	2.7%
COCCN1CC(=O)N(c2cccc(C)c2C)C(c2ccc(Cl)cc2)C1=O (stereo unspecified)	i	0.29	-2.7%
Cc1cc(C(F)(F)F)nn1CC(=O)N1CCCCC1C (stereo unspecified)	i	-0.74	1.7%
COc1ccc(S(=O)(=O)N(C)CC(=O)NCc2cccnc2)cc1OC	i	.	-0.1%
CCC(=O)OC1=C2C(=Nc3c(c(=O)n(C)c(=O)n3C)C2c2ccccc2)c2ccccc21 (stereo unspecified)	i	0.26	-1.9%

14 of the compounds above, in markdown.
| Structure | MT1-MMP reporter | WNV protease inh | Hsc70 |
| --- | --- | --- | --- |
| Clc1ccc(Cn2ncc3c(N4CCCC4)ncnc32)cc1 | i | 0.9 | 8.2% |
| O=C(NCCN1CCOCC1)c1cccc(S(=O)(=O)N2CCCCCC2)c1 | i | -0.63 | -3.3% |
| CC(C)(C)C(=O)CNS(=O)(=O)c1ccc(S(=O)(=O)NC2CCCC2)cc1 | i | -0.58 | 2.7% |
| COc1ccc(-c2cn3c(C)c(C(=O)NC(C)(C)C)sc3n2)cc1 | i | -0.03 | 0.4% |
| CCOCCCNC(=O)C1CCCN1C(=O)NC1CCCCC1 (stereo unspecified) | i | -0.72 | 0.8% |
| O=C(Cn1cc(C(=O)c2cccs2)c2ccccc21)NCc1cccs1 | i | 0.18 | 3.8% |
| Cc1nc2ccccc2n1CC(=O)OCC(=O)Nc1ccc2c(c1)OCCO2 | i | -0.76 | 0.2% |
| O=C(Nc1ccccc1)N1CCN(c2ncccn2)CC1 | i | . | 0.4% |
| N#CCCn1cnc2c(=S)nc[nH]c21 | i | -0.37 | 1.5% |
| Cc1nc2nc(Cc3ccccc3)nn2c(C)c1Cl | i | 0.12 | 6.0% |
| COc1ccc(CC(=O)N2CCN=C2SC)cc1 | i | -1.4 | 4.1% |
| O=C(C1CCCN(c2ncccn2)C1)N1CCc2ccccc21 (stereo unspecified) | i | 0.84 | -9.9% |
| COc1ccccc1NC(=O)C1=C(C)Nc2nnnn2C1c1ccccc1OC (stereo unspecified) | i | 0.65 | 2.7% |
| COCCN1CC(=O)N(c2cccc(C)c2C)C(c2ccc(Cl)cc2)C1=O (stereo unspecified) | i | 0.29 | -2.7% |

(more compounds)
SMILES	MT1-MMP reporter	WNV protease inh	Hsc70
CCn1c(SCC(=O)c2c[nH]c3ccccc23)nnc1-c1cccs1	i	-0.08	-28%
Cc1ccc2[nH]c(=O)c(-c3nc4cc(C)ccn4c3NCc3ccco3)cc2c1	i	-0.41	1.0%
CCN(CC(=O)Nc1cccc(OC)c1)C(=O)C1CCN(C(=O)Nc2ccccc2)CC1	i	-1.2	1.0%
CC(C)COc1ccc(-c2nnc(-c3ccco3)o2)cc1	i	0.6	2.8%
CC1CC(=O)Nc2ccccc2S1(=O)=O (stereo unspecified)	i	-1	-4.0%
COc1ccc(NC(=O)c2nnn(Cc3cccc(F)c3)c2N)c(OC)c1	i	-0.18	1.0%
O=C(CCCCCN1C(=O)c2ccccc2C1=O)NC1CCCC1	i	-0.42	-1.3%
COc1ccc(C2C(C(=O)c3sc(C)nc3C)=C(O)C(=O)N2CCN(C)C)cc1OC (stereo unspecified)	i	0.17	3.2%
COCCN(CCOC)Cc1cc(=O)oc2cc3c(cc12)CCC3	i	-0.14	4.7%
CCOc1ccccc1C1C(C(=O)Nc2ccc(OC)cc2)=C(C)Nc2nc(CCCO)nn21 (stereo unspecified)	i	0.46	1.0%

Source: PubChem BioAssay (several laboratories)
